MT1-MMP act inh: blockers of MT1-MMP proenzyme processing, primary screen, HT1080 RFP-PRO-GFP cells, GFP/RFP fluorescence | AID 651647, 2012 | GFP/RFP ratio change, % at 20 µM | GFP/RFP ratio fluorescence, overnight; percent of plate control window, DMSO zero | hit rate 0.061% among 360,000 | Matrix metalloproteinase-14 (Homo sapiens), P50281;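 active = GFP/RFP ratio change of at least 30% with cell ATP level not reduced by more than half and red fluorescence within 50% of control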; note: strong numbers were not always called active
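system = RFP-PRO-GFP reporter HT1080 cells | dosing = 20 µM single dose, 1% DMSO | timing = overnight cell settling, then overnight compound exposure, 37 °C, 5% CO2 | read-out basis = GFP/RFP fluorescence ratio | controls = DMSO and RFP-L50D-GFP cell wells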
CSC inhib: cancer stem cell viability inhibitors, primary screen, luminescence | AID 2717, 2010 | cancer stem cell-like cells viability | inhibition, % at 7.5 µM | hit rate 1.1% among 300,000;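 active = mean at 75% or more and at least half the replicates too; inconclusive = mean and replicates disagree; tested in HMLE shEcad cells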;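 note: 0% = median of negative and 100% = median of positive control wells; the first replicate is given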
Rce1 inhib: yeast Rce1p protease inhibitors, primary screen, biochemical, fluorescence, cell-free homogeneous. CAAX prenyl protease 2 (Saccharomyces cerevisiae (strain ATCC 204508 / S288c)), Q03530. yeast membranes, quenched prenylated peptide cleavage fluorescence. calls only. hit rate 0.27% among 290,000. AID 2563, 2010;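 active = fall in fluorescence gain of 50% or more versus controls, with final raw signal at or below 3038400; inconclusive = same 50% fall but final raw signal above 3038400; inactive = fall in fluorescence gain under 50%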;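 note: plate controls were neutral control wells for no effect and wells lacking membranes for full effect; tested at 10 µM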
Target sequence (Q03530 whole entry, looked up): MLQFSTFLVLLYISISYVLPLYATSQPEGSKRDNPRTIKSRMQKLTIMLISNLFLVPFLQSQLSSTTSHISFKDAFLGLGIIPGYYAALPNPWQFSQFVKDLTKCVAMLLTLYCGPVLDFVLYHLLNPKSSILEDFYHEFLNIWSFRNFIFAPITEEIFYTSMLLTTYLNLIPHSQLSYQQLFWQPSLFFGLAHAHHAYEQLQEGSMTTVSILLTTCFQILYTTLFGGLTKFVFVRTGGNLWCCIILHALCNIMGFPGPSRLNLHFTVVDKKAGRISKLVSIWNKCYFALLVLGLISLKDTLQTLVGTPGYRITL
eIF4H inh: human eIF4H binding inhibitors, primary screen, translation initiation inhibitor project, biochemical, uHTS, fluorescence polarization; inhibition, % at 35 µM; AID 2012, 2009; eIF4H fluorescence polarization binding assay; Eukaryotic translation initiation factor 4H (Homo sapiens), Q15056; hit rate 0.94% among 290,000;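 active = 50% or more with normal probe brightness, or confirmed in later tests; inconclusive = above 50% with abnormal brightness, or retests that disagree; inactive = below 50% or failed in later tests; about a fifth of its hits are not listed in these tables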;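 note: calls also rest on retests at 20 µM and on dose response follow-up; 0% = protein and probe with vehicle and 100% = probe without protein; strong numbers were not always called active; many hits fall short of the cut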
HIV Env fusion: inhibitors of HIV-1 Env-driven cell-cell fusion, primary screen, HeLa-JRFL effector, CEM21 target cells, luciferase | hit rate 1.1% among 360,000 | inhibition, % at 12.3 µM | AID 651610, 2012;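 active = mean replicate inhibition score of at least 50 and every replicate individually at or above 50; inconclusive = only one of the two criteria met; inactive = mean below 50 and not all replicates reaching 50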;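 note: 0% = plate neutral controls and 100% = maraviroc near 300 nM; one replicate is shown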
PABP polyA inh: PABP poly(A) RNA binding inhibitors, primary screen, biochemical, fluorescence polarization, uHTS; inhibition, % at 35 µM; hit rate 1% among 290,000;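 active = 50% or more with normal probe brightness, or confirmed in later tests; inconclusive = above 50% with abnormal brightness, or retests that disagree; inactive = below 50% or failed in later tests; about a fifth of its hits are not listed in these tables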;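 note: calls also rest on retests at 20 µM and on dose response follow-up; controls were probe without protein and protein plus probe with vehicle; some compounds called inactive have numbers as strong as hits; many hits fall short of the cut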
Target sequence (P11940 whole entry, looked up): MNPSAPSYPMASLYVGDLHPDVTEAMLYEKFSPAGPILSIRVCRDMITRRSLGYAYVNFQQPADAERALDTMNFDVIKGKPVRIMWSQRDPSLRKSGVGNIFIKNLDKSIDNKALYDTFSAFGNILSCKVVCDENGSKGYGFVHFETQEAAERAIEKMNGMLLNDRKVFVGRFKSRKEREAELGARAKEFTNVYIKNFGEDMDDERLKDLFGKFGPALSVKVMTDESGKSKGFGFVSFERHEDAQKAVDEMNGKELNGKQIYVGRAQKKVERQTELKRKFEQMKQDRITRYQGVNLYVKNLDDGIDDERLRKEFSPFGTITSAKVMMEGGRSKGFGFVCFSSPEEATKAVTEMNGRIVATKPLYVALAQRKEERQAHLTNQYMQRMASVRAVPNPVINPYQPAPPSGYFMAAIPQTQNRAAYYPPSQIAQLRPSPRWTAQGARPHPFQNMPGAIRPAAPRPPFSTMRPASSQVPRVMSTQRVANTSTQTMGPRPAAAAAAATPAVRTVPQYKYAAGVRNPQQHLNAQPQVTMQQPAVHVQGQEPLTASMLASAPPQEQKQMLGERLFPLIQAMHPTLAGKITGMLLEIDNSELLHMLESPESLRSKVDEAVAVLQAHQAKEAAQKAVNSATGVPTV
UUG fidelity: modulators of yeast start codon fidelity, primary screen, whole organism, S. cerevisiae, single point, plate reader; hit rate 0.13% among 350,000; S. cerevisiae UUG-firefly luciferase reporter, luminescence/redox ratio; activity score, % at 18.7 µM;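 active = replicate mean at a twofold rise or more, about +100% in these data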;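 note: firefly luciferase made from a UUG start codon reports start codon fidelity; reporter light over untreated wells divided by growth signal over untreated wells; some hits fall short of that in this replicate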
eIF4H inh retest: also measured in eIF4H inh; calls as there; inhibition, %; compound at 20 µM; confirmation average;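 mean of two retest wells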
PABP polyA inh retest: further read-out of PABP polyA inh, marked with its call; inhibition, %; compound at 20 µM; confirmation repeats;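 mean of two retest wells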
MT1-MMP act inh RFP: also measured in MT1-MMP act inh; calls as there; RFP signal change, %; measured here: RFP expression control read;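 0 = vehicle wells; hits needed this value within 50% of zero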
* = called active by the depositor; i = inactive; u = inconclusive; x = not tested or not shown; & = joins results of further samples.

SMILES	MT1-MMP act inh	MT1-MMP act inh RFP	CSC inhib	Rce1 inhib	eIF4H inh	HIV Env fusion	PABP polyA inh	UUG fidelity	others
Cc1cc(C)cc(-c2nnc(SCC(=O)N3CCN(C(=O)c4ccco4)CC3)o2)c1	6	-1	-13	x	-5	-2	0	-1
O=C(C(Cc1ccccc1)n1cccc1)N1CCN(Cc2ccccc2)CC1 (stereo not drawn)	2	1	18	i	4	x	-7	3
CCN(CC)C1CC(=O)N(c2cccc(Cl)c2)C1=O (stereo not drawn)	0	4	-6	i	-4	-8	-1	-20
CC1CCCN(S(=O)(=O)c2ccc3oc(=O)ccc3c2)C1 (stereo not drawn)	1	3	-8	i	-10	-228	7	0
Cn1cc(S(=O)(=O)CC(=O)N2CCCc3ccccc32)c2ccccc21	0	0	-12	i	7	15	4	22
COC(=O)CC1=NN(c2ccc(OC)cc2)C(=O)C1	-1	1	x	i	-9	34	6	x
O=C(Nc1ccc(F)cc1)C1CC(=O)n2ncnc2N1 (stereo not drawn)	3	7	-2	i	-7	-13	-8	x
C=CCN(c1ccccc1OC)S(=O)(=O)c1cccc(C(=O)OC2CCOC2=O)c1 (stereo not drawn)	3	4	x	x	x	-46	x	-4
C=CCOc1ccc(C2NC(=O)NC(C)=C2C(=O)OC)cc1 (stereo not drawn)	-8	-6	2	i	6	-34	1	-4
O=C1/C(=C/c2ccco2)Oc2c1ccc(O)c2CN1CCCCC1	-49	0	18	i	100	-14	0	x	eIF4H inh retest=5;PABP polyA inh retest=-1
NC(=S)NC(=O)/C=C/c1ccccc1	-9	-6	15	x	6	1	6	x
Cc1cccc(C(=O)O)c1[N+](=O)[O-]	1	9	-6	x	x	x	x	-8
Cc1c(NC(=O)Nc2cccc(F)c2)c(=O)n(-c2ccccc2)n1C	1	2	1	i	-4	-333	-9	-20
CCCNC(=O)NCCc1c(C)[nH]c2ccccc12	-5	3	4	i	-2	-32	-2	-10
Nc1nc(N)c2c(ccc3nccc32)[nH]1	1	5	43	u	8	-8	14	-12
CC(C)C(=O)N[C@@H]1c2ccccc2CC[C@@H]1O	2	2	x	x	x	3	x	-22
COc1ccc(-c2nn(-c3ccccc3)cc2/C=N/NC(=O)c2ccc(Br)o2)cc1	-10	-26	24	i	-11	x	-2	-13
Cc1cc(C)n(C2CCCCC2OC(=O)c2ccccc2)n1 (stereo not drawn)	1	3	-8	i	4	x	7	-4
O=C(c1cccc(S(=O)(=O)Nc2ccccc2Cl)c1)N1CCCCCC1	-5	2	x	i	x	4	x	12
Cc1cccc(NC(=O)NCc2ccc3[nH]c(C)cc3c2)c1	7	11	15	i	4	2	-3	-13
COc1ccc(-c2noc(N3CCC(C(=O)NCc4ccccc4Cl)CC3)n2)cc1	-1	-24	4	i	0	10	-11	9
Cc1nnc(SC(C(=O)c2ccccc2)c2ccccc2)[nH]c1=O (stereo not drawn)	1	4	2	i	-14	13	1	x
CC(C)c1ccc(O)c(NC(=S)NC(=O)c2cccnc2)c1	0	-1	30	i	-4	-14	-5	x
CCCCNS(=O)(=O)c1ccc(NC(=O)Cc2ccc(OC)cc2)cc1	3	-15	-10	i	-2	8	-8	x
O=C1c2ccccc2C(=O)N1CCCCSc1nc2ccccc2o1	0	0	7	i	-8	x	3	-5

Next part
SMILES	MT1-MMP act inh	MT1-MMP act inh RFP	CSC inhib	Rce1 inhib	eIF4H inh	HIV Env fusion	PABP polyA inh	UUG fidelity	others
Cc1cccc(N=Nc2c(O)[nH]c3ccc(Br)cc23)c1	-7	4	1	i	u	-48	u	5
CC(C)C(c1nnnn1C(C)(C)C)N1CCN(c2cccc(Cl)c2)CC1 (stereo not drawn)	-4	-8	13	i	-2	x	-1	10
CCC(C)NC(=O)c1ccccc1NC(=O)c1ccc(CSc2ccccc2)cc1 (stereo not drawn)	-9	-4	19	i	-5	-12	-4	-5
COc1cccc(NC2c3ccccc3C(=O)N2Cc2ccco2)c1 (stereo not drawn)	2	-5	-1	i	-3	38	9	1
CCOC(=O)NC(=S)Nc1ccc(C(C)(C)C)cc1Br	1	1	20	i	-6	-5	-6	x
c1ccc(Sc2ncnc3ccccc23)cc1	-3	-7	x	i	-1	19	12	0
COC(=O)c1ccccc1NC(=O)C1CCCN(S(=O)(=O)c2ccc(F)cc2)C1 (stereo not drawn)	2	-9	-3	i	-7	x	8	2
O=C1C(=C2SCCCS2)CC/C1=C\c1ccc(F)cc1	5	5	36	i	-5	x	6	x
O=c1[nH]c(/C=C\c2ccccc2F)nc(O)c1[N+](=O)[O-]	0	2	3	i	-6	-3	16	-5
COc1ccccc1N1CCN(C2=NS(=O)(=O)c3ccccc32)CC1	-2	4	10	i	5	-10	-4	x
CCOc1ccc(C2CC(c3ccccc3C)n3nc(N)nc3N2)cc1 (stereo not drawn)	2	1	x	i	-3	65*	-13	-20
c1ccc(-c2cn3nc(-c4ccccc4)sc3n2)cc1	-6	4	19	i	x	x	x	-10
C/C(Cl)=C\Cn1c(Nc2cccc(C)c2)nc2c1c(=O)n(C)c(=O)n2C	-4	-5	-10	i	-5	x	-5	x
CN(Cc1ccco1)S(=O)(=O)c1ccc(CN2C(=O)c3cccnc3C2=O)s1	0	0	-16	i	1	1	5	-4
N#Cc1ccc(OCC(=O)NN2Cc3ccccc3C2=N)cc1	2	6	x	i	6	2	1	x
CCCCCCSc1cccc(-c2nc3cc(C)ccn3c2NC2CCCCC2)c1	-9	-12	83*	i	x	u	x	0
Cc1cc(C)c(CN2CCC(n3nccc3NC(=O)c3ccccc3Cl)CC2)cc1C	-2	0	-1	i	-9	1	9	-23
Cc1ccsc1C(=O)Nc1cccc(-n2cnnn2)c1	-2	1	10	i	-10	-4	6	-10
NS(=O)(=O)c1ccc(NC(=O)COC(=O)/C(=C/c2cccs2)c2cccs2)cc1	1	-6	-16	i	10	-28	0	-3
COc1cc2c(cc1OC)CN(CC(=O)Nc1ccc(F)cc1)C(C(=O)O)C2 (stereo not drawn)	-4	3	-9	i	5	1	6	-2
O=C(NCCSCc1ccco1)Nc1ccc(Cl)cc1	-2	0	-17	x	-4	x	-5	-15
CCOC(=O)c1[nH]c(C)c(/C(O)=C2\C(=O)C(=O)N(CCCN3CCOCC3)C2c2cccnc2)c1C (stereo not drawn)	-2	1	x	x	-7	-16	11	x
C[C@H](CO)N1C[C@H](C)[C@@H](CN(C)CC2CCOCC2)Oc2cc(C#Cc3ccccc3F)ccc2S1(=O)=O	-7	-10	x	x	x	-11	x	13&5
O=C(COC(=O)CSCc1ccccc1)NCc1ccccc1	-3	0	x	i	-2	6	-1	x
Cc1cc(C(=O)CN2C(=O)NC3(CCCc4ccccc43)C2=O)c(C)n1Cc1ccccc1 (stereo not drawn)	0	-9	5	i	-1	x	-1	x

Twelve entries already listed, sorted by SMILES length, highest first.
SMILES	MT1-MMP act inh	MT1-MMP act inh RFP	CSC inhib	Rce1 inhib	eIF4H inh	HIV Env fusion	PABP polyA inh	UUG fidelity	others
C[C@H](CO)N1C[C@H](C)[C@@H](CN(C)CC2CCOCC2)Oc2cc(C#Cc3ccccc3F)ccc2S1(=O)=O	-7	-10	x	x	x	-11	x	13&5
Cc1cc(C(=O)CN2C(=O)NC3(CCCc4ccccc43)C2=O)c(C)n1Cc1ccccc1 (stereo not drawn)	0	-9	5	i	-1	x	-1	x
C/C(Cl)=C\Cn1c(Nc2cccc(C)c2)nc2c1c(=O)n(C)c(=O)n2C	-4	-5	-10	i	-5	x	-5	x
Cc1c(NC(=O)Nc2cccc(F)c2)c(=O)n(-c2ccccc2)n1C	1	2	1	i	-4	-333	-9	-20
CCCCNS(=O)(=O)c1ccc(NC(=O)Cc2ccc(OC)cc2)cc1	3	-15	-10	i	-2	8	-8	x
Cc1cccc(NC(=O)NCc2ccc3[nH]c(C)cc3c2)c1	7	11	15	i	4	2	-3	-13
CC(C)C(=O)N[C@@H]1c2ccccc2CC[C@@H]1O	2	2	x	x	x	3	x	-22
CCOC(=O)NC(=S)Nc1ccc(C(C)(C)C)cc1Br	1	1	20	i	-6	-5	-6	x
Cc1ccsc1C(=O)Nc1cccc(-n2cnnn2)c1	-2	1	10	i	-10	-4	6	-10
Cc1cccc(C(=O)O)c1[N+](=O)[O-]	1	9	-6	x	x	x	x	-8
Nc1nc(N)c2c(ccc3nccc32)[nH]1	1	5	43	u	8	-8	14	-12
c1ccc(Sc2ncnc3ccccc23)cc1	-3	-7	x	i	-1	19	12	0

The list continues.
SMILES	MT1-MMP act inh	MT1-MMP act inh RFP	CSC inhib	Rce1 inhib	eIF4H inh	HIV Env fusion	PABP polyA inh	UUG fidelity	others
COc1ccc(C(=O)C2CCCN(C(=O)c3c4c(nn3C)CCCC4)C2)cc1F (stereo not drawn)	3	0	6	i	-11	8	-3	x
O=C(CSc1nnnn1-c1ccc2c(c1)OCCO2)Nc1nc2c(s1)CCCC2	-1	-8	x	i	-1	x	-3	-25
CN1C(=O)C2(N=c3ccccc3=N2)c2ccccc21	-2	-2	2	i	-3	x	0	x
CCOc1ccc(NC(=O)C2CCN(S(C)(=O)=O)CC2)cc1	0	1	-8	i	4	6	-6	10
O=C1C(Cl)=C(N2CCOCC2)C(=O)N1c1cccc(Cl)c1	-4	-7	-9	i	1	-87	10	-12
CCC(C)n1[nH]c(=O)c2c(C)cc(C)nc21 (stereo not drawn)	-2	7	-5	i	-3	4	-4	-8
CSc1nc2ccccc2c(=O)n1C1CCOC(C)(C)C1 (stereo not drawn)	1	2	-9	i	7	3	0	x
Cc1c(-n2cc(C(=O)c3cc(Br)ccc3O)cc(C#N)c2=O)c(=O)n(-c2ccccc2)n1C	-49	6	1	i	35	-1	37	-10
Nc1nc(-c2ccco2)nn1C(=O)CCc1ccccc1	1	0	-9	i	-2	x	35	-4
CN(C)S(=O)(=O)n1cc(/C=C(\NC(=O)c2ccccc2F)C(=O)N2CCCC2)c2ccccc21	2	2	12	i	-4	2	-17	x
Oc1cccc(/C=N/N2CCN(c3ccccn3)CC2)c1	6	3	-2	i	-6	-6	5	-9
C=CCn1c(SCC(=O)Nc2ccccc2C)nc2sc(C)c(C)c2c1=O	-1	1	1	i	-7	x	13	-12
CCOc1ccccc1NC(=O)COC(=O)C1CC1	-2	1	-15	i	5	5	2	x
COc1ccc(-c2nc(-c3cccc([N+](=O)[O-])c3O)cc(=O)o2)cc1OC	11	5	x	i	6	3	14	x
CN(C)S(=O)(=O)c1ccc(C(=O)Nc2ccc(CN3CCCC3)cc2)cc1	3	-1	-4	i	8	x	-1	-14
CCOC(=O)C(/C=C(\C#N)C(=O)OCC)=C(/N)N1CCN(c2ccc(OC)cc2)CC1	4	2	-6	i	3	x	-2	5
COc1cccc(CN(CCC(=O)O)Cc2cccc(OC)c2)c1	1	5	x	x	x	-2	x	-28
CC(C)Nc1ccccc1	4	9	-13	x	x	x	x	-15

Screening data as filed in PubChem BioAssay.
